Source: PubChem BioAssay
UCH37 inh = inhibitors of human deubiquitinating enzyme UCH37; Q9Y5K5; purified proteasome/UCH37, Ub-AMC cleavage fluorescence; inhibition, % (test concentration not listed); 330,000 compounds, 0.33% hits;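 active = mean of two replicates above 20%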;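 also: 0% = compound-free wells with enzyme and 100% = wells lacking proteasome; stock transfer was 100 nL into about 20 µL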
Target sequence (Q9Y5K5 whole entry, looked up): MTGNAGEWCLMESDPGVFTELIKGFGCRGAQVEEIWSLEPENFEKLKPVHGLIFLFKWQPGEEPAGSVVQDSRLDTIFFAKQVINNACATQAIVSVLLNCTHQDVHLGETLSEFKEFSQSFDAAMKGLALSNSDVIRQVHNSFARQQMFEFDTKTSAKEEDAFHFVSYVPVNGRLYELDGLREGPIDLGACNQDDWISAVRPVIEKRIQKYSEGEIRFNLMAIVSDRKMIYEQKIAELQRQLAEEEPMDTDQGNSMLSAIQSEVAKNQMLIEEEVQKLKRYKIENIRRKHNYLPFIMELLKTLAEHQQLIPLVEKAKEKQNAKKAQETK
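Assay system: Proteasome-bound UCH37. Buffer or medium: pH 7.4 Tris-HCl (50 mM) with ovalbumin, ATP-MgCl2, DTT. Incubation: 30 min preincubation with enzyme, 25 min cleavage at room temperature. Measured by: fluorescence, ex 355 nm, em 460 nm. Read-out basis: percent inhibition. Control set: wells without proteasome as full block, compound-free enzyme plus substrate as uninhibited.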
B2AR ag = activates human beta-2 adrenergic receptor causing internalization; response, % (test concentration not listed); 340,000 compounds, 0.43% hits; Am2.2-beta2AR cells, FAP receptor internalization, flow cytometry; reference of the scale not given here;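 active = response above a set limit, near 3 SD of response in nonfluorescent compounds, cut at about 42% in these data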;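 also: stock transfer was 100 nL into about 11 µL; a reference agonist was the positive control; negative values mostly stem from fluorescent compounds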
HNF4A DNA FP = change in binding of human HNF4 alpha to DNA; P41235; HNF4a-FITC DNA binding, fluorescence polarization, 1 h; activity change, % at 10 µM; 360,000 compounds, 0.3% hits; AID 1224865; in the data active = activity change above about 30%, passing the limit was not always enough;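 also: controls were the assay level and a saturating level of protein; the project sought stronger binding though the title names inhibitors; some compounds called inactive have numbers as strong as hits; positive values seem to mean higher polarization but the record does not say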
Target sequence (P41235 whole entry, looked up): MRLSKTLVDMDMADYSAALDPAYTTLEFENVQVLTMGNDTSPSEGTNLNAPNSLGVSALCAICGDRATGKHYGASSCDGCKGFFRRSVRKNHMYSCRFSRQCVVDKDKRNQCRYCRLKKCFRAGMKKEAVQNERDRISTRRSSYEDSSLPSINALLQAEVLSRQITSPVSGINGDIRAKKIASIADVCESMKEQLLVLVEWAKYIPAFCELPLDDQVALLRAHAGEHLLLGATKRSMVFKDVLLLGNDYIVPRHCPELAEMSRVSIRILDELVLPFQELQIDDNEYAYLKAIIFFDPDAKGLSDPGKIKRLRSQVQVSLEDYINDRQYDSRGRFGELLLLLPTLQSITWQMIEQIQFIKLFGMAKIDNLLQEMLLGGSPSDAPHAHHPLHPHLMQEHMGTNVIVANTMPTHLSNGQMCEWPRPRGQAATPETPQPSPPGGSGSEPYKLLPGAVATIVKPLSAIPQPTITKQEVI
Vif TR-FRET = inhibitors of Vif binding to APOBEC3G peptide, primary screen, biochemical, TR-FRET, GST-Vif 1-94, biotin-A3G peptide, dose response retest (AID 1117319). TR-FRET GST-Vif / biotin-A3G peptide binding; higher % means a stronger effect; test concentration not given here; strong numbers were not always called active. inhibition, %, or IC50 in µM where a hit was titrated. 260,000 compounds, 0.57% hits;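 active = above the screen mean plus three standard deviations and confirmed in dose response; inconclusive = results disagree or hit not tested in dose response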;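 also: Vif residues 1-94 fused to GST binding biotinylated APOBEC3G peptide 110-148; 0% = full assay without inhibitor and 100% = GST in place of GST-Vif; retest series ran down from 100 µM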
Bfl-1 A1 inh = inhibitors of the anti-apoptotic protein A1, read as caspase activation. MEF A1-2A-BIM cells, Caspase-Glo 3/7 luminescence, 3 h; percent of clofoctol response, vehicle zero. caspase activation, % (no concentration beside the values). 330,000 compounds, 0.066% hits. AID 2462;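 active = over half of replicate activation scores above 10%, or exactly half above 10 with the replicate mean above 10; inconclusive = replicate mean below 10 yet half the replicates above 10; inactive = over half of replicates below 10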;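 also: wells of about 30 µL received 50 nL stock; many hits fall short of the cut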
E coli growth = inhibitors of Escherichia coli growth; OD600, 23 h; stronger effect = lower value; OD600 absorbance (test concentration not listed); 330,000 compounds, 0.21% hits;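 active = OD600 absorbance below the run mean of sample wells minus 3.6 SD, in any replicate, cut at about 0.56 in these data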;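 also: stock transfer was 300 nL into about 60 µL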
LANA-H2A inh = blocks KSHV LANA binding to histone H2A/H2B; Q9QR71; cell-free LANA-H2A/H2B peptide, fluorescence polarization; inhibition, % (no concentration beside the values); 320,000 compounds, 0.6% hits; AID 2629; in the data active = inhibition mostly above about 10%, no sharp cut-off; inactive = mostly below about 6.7%;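 also: stock transfer was 7.5 nL into about 10 µL; 0% = median of vehicle wells and 100% = median of positive control wells; one replicate is shown; the record names a cut of 25% in any replicate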
Numbers without * were called inactive; ? = inconclusive; / = no result given.

SMILES	UCH37 inh	B2AR ag	HNF4A DNA FP	Vif TR-FRET	Bfl-1 A1 inh	E coli growth	LANA-H2A inh
CCN(CC)S(=O)(=O)c1cccc(NC(=O)CCNC(=O)NC23CC4CC(CC(C4)C2)C3)c1	3.7	0.1	-3.5	2.7%	1.2	0.694	-2.9
COc1ccc(-c2nc3n(n2)C(c2ccccc2Cl)C(C(N)=O)=C(C)N3)cc1 (stereo not drawn)	0.9	-2.6	0.1	23.9%	-1.6	0.769	0.8
COc1cccc2sc(N3CCN(C(=O)c4ccc([N+](=O)[O-])o4)CC3)nc12	4.5	2.3	3.5	2.4%	-0.1	0.67	-3.3
O=C(N/N=C1/SCC(=O)N1Cc1ccco1)c1ccccc1F	/	-6.5	3.0	/	0.5	/	-1.3
COc1ccc(NC(=O)c2[nH]c(C)c(C(C)=O)c2C)cc1S(=O)(=O)N1CCOCC1	0.4	-1.8	7.1	-1.1%	-0.1	0.683	-5.7
CCC(=O)N(Cc1ccc(S(N)(=O)=O)cc1)C1CC(=O)N(c2ccc(OC)cc2)C1=O (stereo not drawn)	0.3	-0.3	1.5	2.8%	0.7	0.774	-2.2
C=C(C(=O)c1ccccc1)C(C)CC(=O)c1ccccc1 (stereo not drawn)	1.6	3.0	-0.8	23.7%	-0.8	0.681	3.3
CCOC(=O)C1=C(C)c2ccccc2N(C(=O)OC)C1(C)C(=O)OCC (stereo not drawn)	-0.1	-6.1	-1.1	-0.7%	/	0.723	/
Cc1cc(NC(=O)CSc2ccccn2)no1	-0.2	-2.1	-3.4	6.7%	0.3	0.661	-4.1
C#CCN1C=C(C(=O)OCC)C(C)NS1(=O)=O (stereo not drawn)	-1.8	-7.5	2.1	1.1%	/	0.718	/
COc1ccc(CCNC(=O)c2ccc(Cl)c(S(=O)(=O)N3CCCCCC3)c2)cc1	5.5	0.8	1.3	1.4%	-0.5	0.715	-1.1
Cc1ccc(C)c(N2CCN(C(=O)Cn3c(=O)[nH]c4ccsc4c3=O)CC2)c1	1.2	-1.7	-0.8	-3.8%	1.1	0.668	-2.0
NC(=O)c1ccsc1NC(=O)COC(=O)c1cccnc1Cl	4.1	3.3	1.6	-5.4%	-2.6	0.724	0.4
CCC(C)Oc1ccc(/C=C/c2[nH]c(=O)[nH]c(=O)c2[N+](=O)[O-])cc1OC (stereo not drawn)	13.3	12.3	-2.6	-4.1%	0.8	/	6.1
Cc1cccc(C=Nc2ccc3c4c(cccc24)CC3)c1O	-16.3	0.5	8.9	/	-1.1	0.686	-0.8
Cc1ccc(S(=O)(=O)NCCC(=O)N2CCCCCCC2)cc1	4.8	-2.5	1.4	5.1%	-0.3	0.65	4.5
Cc1ccc(C(=O)NCCc2nnc3ccc(SCC(=O)Nc4ccc(C)cc4C)nn23)cc1	4.9	-2.8	3.0	/	1.2	0.681	4.3
O=C(CSc1ccccc1)OCC(=O)N1CCN(C(=O)c2ccco2)CC1	0.4	-0.6	-0.4	-3.8%	0.6	0.649	-0.9
CCc1nc(SCC(=O)Nc2nccs2)c2oc3ccccc3c2n1	2.3	-14.4	0.3	-2.0%	-0.6	0.75	6.0
CC(=O)Nc1ccc(C(=O)OCC(=O)N2CCN(C(=O)c3ccco3)CC2)cc1	5.1	0.2	-3.5	/	0.6	0.665	-3.6
CCOc1ccc(-c2nnc(SCc3nc4ccccc4[nH]3)n2N)cc1	1.9	-14.7	2.6	4.3%	0.8	0.677	-4.9
COCCOC(=O)c1c(C)oc2ccc(O)c(CN3CCC(C)CC3)c12 (tested in a mixture with another compound)	5.6	-3.3	0.1	-6.0%	/	0.685	/
CC(OC(=O)c1ccc2c(=O)n3c(nc2c1)CCC3)C(=O)NC1CCCCC1C (stereo not drawn)	-12.1	-9.9	1.9	/	0.0	0.713	2.1
Brc1ccc(-c2nnc3n2-c2ccccc2CC3)cc1	4.2	-4.4	0.3	32.0%	0.6	0.684	-4.2
COc1ccc2sc(NC(=O)CC(C)C)nc2c1	5.9	3.0	2.2	-5.1%	-0.9	0.671	-1.0

Random excerpt: two entries already listed
SMILES	UCH37 inh	B2AR ag	HNF4A DNA FP	Vif TR-FRET	Bfl-1 A1 inh	E coli growth	LANA-H2A inh
O=C(CSc1ccccc1)OCC(=O)N1CCN(C(=O)c2ccco2)CC1	0.4	-0.6	-0.4	-3.8%	0.6	0.649	-0.9
Cc1ccc(C(=O)NCCc2nnc3ccc(SCC(=O)Nc4ccc(C)cc4C)nn23)cc1	4.9	-2.8	3.0	/	1.2	0.681	4.3

(continued)
SMILES	UCH37 inh	B2AR ag	HNF4A DNA FP	Vif TR-FRET	Bfl-1 A1 inh	E coli growth	LANA-H2A inh
COc1cc(OC)nc(NC(=O)NS(=O)(=O)c2ccc(OC(F)(F)F)cc2)n1	0.0	-4.6	1.0	-7.6%	1.0	0.714	-0.6
Cc1ccc(C(=O)/C=C/c2cc(Br)cc(Br)c2O)o1	/	15.6	-7.5	/	-0.2	/	0.0
C/C(=N\NC(=O)CCCNc1ccccc1)c1ccncc1	/	8.7	-2.1	/	-0.4	/	1.3
Cc1cccc(C)c1OCc1cc(C(=O)NC2CCC2)no1	4.0	8.8	-2.0	/	-0.6	0.73	-0.4
COC(=O)C1CCN(C(=O)/C(C)=C\c2ccccc2)CC1	4.2	-2.0	1.0	/	-0.3	0.679	-5.1
CCOc1ccc(N(CC(=O)NCc2ccc(C)cc2)S(=O)(=O)c2c(C)[nH]c(=O)[nH]c2=O)cc1	6.7	-5.3	-4.5	/	1.2	0.698	1.7
Cc1ccc2cn[nH]c2c1[N+](=O)[O-]	7.0	1.5	0.0	-1.6%	-0.9	0.652	6.3
Cc1ccc(NS(=O)(=O)c2ccc(C)c(C(=O)Nc3ccc(S(=O)(=O)Nc4onc(C)c4C)cc3)c2)cc1	4.0	-5.8	2.5	/	/	0.66	/
Cc1ccc(NC(=O)c2cc(S(=O)(=O)N3CCCC3)cn2C)cc1C	-0.5	7.2	2.6	/	0.3	0.671	-7.6
Cc1cccc(N2CCN(C(=O)Cn3cnc4c3c(=O)n(C)c(=O)n4C)CC2)c1C	-1.7	2.7	-1.1	-4.8%	0.0	0.697	-1.4
COc1ccc(CCN2CCC(CN3C(=S)NC[C@@H]3CC(C)C)CC2)cc1OC	/	-5.7	5.3	7.4%	/	/	/
Cc1cc(C)cc(N=C2NC(=O)CS2)c1	5.9	-6.1	2.7	-0.3%	0.2	0.659	-1.5
CC(C)(C)NC(=O)C(c1cccs1)N(C(=O)c1csnn1)c1cccc(F)c1 (stereo not drawn)	-1.3	3.1	1.4	-3.7%	0.3	0.658	2.0
O=C(COC(=O)CNS(=O)(=O)c1c(Cl)cccc1Cl)Nc1ccccc1Sc1ccccc1	0.7	-1.9	4.4	?	0.4	0.665	-1.8
CSc1ncnc2c1cnn2-c1ccc(C)cc1C	4.3	-8.5	-5.7	/	0.0	0.677	5.0
CCN(CC)C(=O)c1[nH]cnc1C(=O)N[C@@H](CC(C)C)C(=O)OC(C)(C)C	5.0	-6.9	-0.1	/	0.2	/	-3.6
COc1ccc(N(CC(=O)Nc2cc(C)ccc2C)S(=O)(=O)c2c(C)nn(C)c2C)cc1	1.7	0.2	1.6	1.5%	-0.1	0.79	3.2
O=C(NN=C1CCCC1)c1n[nH]c2c1CCCC2	4.4	-4.3	2.5	/	-5.8	0.713	-0.7
CC(C)[C@H]1COC(NC2=N[C@@H](C(C)C)CO2)=N1	1.6	-0.6	2.9	/	1.0	/	0.8
CC(=O)Nc1cccc(C)c1	3.6	-5.2	6.0	/	0.4	0.68	-2.2
O=C(Nc1c2c(nn1-c1cccc(Cl)c1)CS(=O)(=O)C2)c1ccc2c(c1)OCO2	-0.9	-1.9	0.7	/	1.1	0.723	2.8
Cc1ccccc1S(=O)(=O)Cc1ccc(C(=O)NCCCN2CCC(C)CC2)o1	1.3	-6.2	-2.4	60.5%	-0.8	0.677	0.9
CCOC(=O)C1(CCc2ccccc2)CCN(Cc2ccc(OC)cc2)CC1	3.8	-6.9	-0.5	/	0.4	0.689	-3.1
Cc1nn(C)cc1CN1CCCC(C(=O)c2ccc(-c3ccccc3)cc2)C1 (stereo not drawn)	3.2	1.8	5.7	1.3%	-0.4	0.664	-1.5
O=S(=O)(c1ccccc1)c1cnc(-c2cccnc2)nc1-c1ccccc1	2.1	12.9	-0.1	14.2%	0.4	0.669	3.7
New compounds follow:
SMILES	UCH37 inh	B2AR ag	HNF4A DNA FP	Vif TR-FRET	Bfl-1 A1 inh	E coli growth	LANA-H2A inh
O=C(NCCc1cnc[nH]1)c1cccs1	-0.3	-4.1	-0.7	/	-0.6	0.645	7.4
CC(=C1C(=O)c2ccccc2C1=O)N1CCC(C(N)=O)(N2CCCCC2)CC1	10.1	6.7	0.6	6.8%	0.4	0.685	-0.7
C=CCn1c(SCC(=O)O)nnc1-c1ccc(C(C)(C)C)cc1	1.8	-0.9	-0.5	4.3%	0.1	0.737	-4.0
Nc1cc(C(=O)O)ccc1Nc1ccccc1	-43.3	-2.9	3.6	13.0%	1.5	0.649	-0.9
COc1ccccc1-c1nnc2sc(COc3ccccc3)nn12	1.2	7.6	-1.3	-1.5%	0.8	0.719	-10.7
O=C(CSc1ccc2nnc(CCNC(=O)c3ccccc3)n2n1)Nc1ccccc1F	1.3	-15.2	-3.9	3.0%	-0.8	0.649	0.8
CCCn1c2c(c(=N)c3c1CCC3)CCC2	-1.2	5.0	1.1	/	-0.9	0.641	-21.6
O=C1[C@H]2[C@@H](/C=C/c3ccccc3)N3C(=O)CN(Cc4ccccn4)C(=O)[C@@]3(Cc3ccccc3)[C@H]2C(=O)N1c1ccccc1	0.6	1.6	-4.7	/	-0.7	/	4.4
O=C(NCc1ccc(Cl)cc1)C1CCC(CNc2c(N3CCOCC3)c(=O)c2=O)CC1 (stereo not drawn)	0.8	-1.8	1.8	-7.7%	0.5	0.708	4.6
Cc1ccc(SCc2cc(=O)[nH]c(/N=C(\N)Nc3ccc(C)c(C)c3)n2)cc1	6.0	-10.9	2.3	20.5%	-0.1	0.755	3.5
CC1(c2ccc(OC(F)F)cc2)NC(=O)N(/N=C/c2c(O)ccc3ccccc23)C1=O (stereo not drawn)	/	-0.6	-1.6	-1.8%	0.3	/	-3.6
CCn1c(SCc2nc3scc(-c4ccccc4)c3c(=O)[nH]2)nnc1-c1ccc(Cl)cc1	0.1	-5.8	8.4	-13.8%	-0.2	0.701	-3.9
COc1ccc(N(C(=O)Cn2nnc(-c3ccccc3F)n2)C(C(=O)NCC2CCCO2)c2ccc(Cl)cc2)cc1 (stereo not drawn)	0.3	8.3	-1.7	/	0.1	0.652	4.6
Cn1c(=O)c2c(SCC(=O)N3CCOCC3)nc(C3CCCCC3)nc2n(C)c1=O	1.1	/	/	-7.1%	1.2	0.696	-3.8
O=[N+]([O-])c1cccc(-c2nnc3cccc(Cl)n23)c1	5.8	-2.3	0.8	0.1%	0.3	0.674	-3.8
NC1=NC[C@H](Cc2ccccc2)N1CCc1cc(C(F)(F)F)cc(C(F)(F)F)c1	1.7	-0.4	1.0	-5.4%	0.0	/	2.7
Cc1ccc(COC(=O)c2ccc3ccccc3n2)cc1	0.2	4.5	1.6	/	-1.1	0.682	-3.7
Cc1ccc(NC(=O)C2=CCN(S(=O)(=O)c3ccc(F)cc3)CC2)cc1	2.9	0.4	4.4	1.2%	1.9	0.677	0.6
O=C(Nc1cc(S(=O)(=O)N2CCCCC2)ccc1N1CCOCC1)c1cc(=O)[nH]c2ccccc12	3.6	1.9	-0.7	7.6%	1.2	0.663	1.2
COC(=O)CCNCCSc1nnc(-c2ccco2)n1Cc1ccccc1	4.1	3.7	2.6	-6.6%	1.7	0.667	1.4
COCCCn1c(=O)/c(=C\c2ccccc2OC(F)F)s/c1=C(/C#N)C(=O)N1CCOCC1	/	5.6	4.5	-17.1%	-0.2	/	0.8
